Screens as filed in PubChem.
Mtb hypoxia inh = PubChem AID 1159583 | M. tuberculosis hypoxia-regulated fluorescent reporter, fluorescence | fluorescence inhibition, % (test concentration not listed) | hit rate 0.1% among 300,000;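 active = 35 to 45% if threefold the growth effect, above 45% if 1.5-fold the growth effect; inactive = the rest, general growth blockers included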;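 note: wells of about 50 µL received 100 nL stock; 0% = vehicle wells and 100% = reference inhibitor wells; whole bacteria with a GFP reporter of the hypoxia response; strong numbers were not always called active; many hits fall short of the cut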
Bead autofluor = compound fluorescence in toxin protease inhibitor counterscreen. compound autofluorescence counterscreen, microsphere flow cytometry; active compounds read high. fluorescence intensity (concentration not given with the values). hit rate 3.1% among 360,000. AID 624483;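 active = at least 3 SD above the mean of all compounds, about 16000 in these data; inconclusive = too few beads counted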;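 note: 100 nL of 1 mM stock went into each well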
RN4220 kill = growth inhibition of S. aureus RN4220, primary screen, OD600. AID 1259311, 2017. 16 h. hit rate 0.33% among 330,000. inhibition, % (no concentration beside the values);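 active = z-score of -3 or lower and OD600 up to 0.18 on both plates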;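 note: plate controls were untreated cells for no effect and reference antibiotic for full effect; stock transfer was 100 nL into about 80 µL; one replicate is shown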
BJeLR lethal = MLPCN primary cell-based screen for lethality selective to Ras in HRASV12 cells; hit rate 0.17% among 300,000; inhibition, % (test concentration not listed); BJeLR (HRASV12) viability, CellTiter-Glo ATP luminescence, 48 h; reference of the scale not given here;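 active = replicate mean above 50%; inconclusive = above 50% but judged a plate artefact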;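 note: 50 nL library stock added to about 25 µL; numbers are from one replicate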
PrP 5UTR inh = inhibition of PrP 5' UTR reporter expression; cell-based PrP 5' UTR mRNA reporter, plate reader; inhibition, % (no concentration beside the values); hit rate 0.35% among 340,000; AID 488862, 2010;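 active = every replicate at 50% or more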;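 note: 0 = median of the neutral control wells; tested in H4 reporter cells; numbers are from one replicate; inactives centre near -14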
Sa ugtP lethal = growth inhibition of ugtP-null S. aureus, primary screen, RN4220 ugtP deletion, OD600 | 16 h; some inactives read as strong as hits | growth inhibition, % (no concentration beside the values) | hit rate 0.54% among 330,000 | AID 1259309, 2017;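 active = z-score under -3 and OD600 up to 0.15 on both plates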;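 note: plate controls were untreated wells for no effect and antibiotic for full effect; wells of about 80 µL received 100 nL stock; the first replicate is given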
Mtb hypoxia inh growth = also measured in Mtb hypoxia inh; calls as there; growth inhibition, %; measured here: M. tuberculosis growth (absorbance);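 0% = vehicle and 100% = reference antibiotic; read after six days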
* = called active by the depositor; ? = inconclusive; nt = not tested or not shown; & = joins results of further samples.

SMILES	Mtb hypoxia inh	Mtb hypoxia inh growth	Bead autofluor	RN4220 kill	BJeLR lethal	PrP 5UTR inh	Sa ugtP lethal
CC(C(=O)Nc1ccc2ccccc2c1)C1C[C@]1(C)C(NC(=O)c1cccnc1)c1ccccc1 (some centres undefined)	-6	-7	nt	-3.5	nt	nt	-1
COc1cccc(C=NNc2nn3cnnc3c3ccccc23)c1O	9	0	nt	4.1	nt	nt	-7
Cc1cc(C(=O)c2cnc(N=CN(C)C)s2)c(F)cc1Cl	14	5	nt	9.9	nt	nt	10
O=C(Cc1ccc([N+](=O)[O-])cc1)c1c(O)cc(O)cc1O	-11	8	4598	2.9	1	-15	5
O=C(NN=Cc1cccnc1)/C(=C\c1cccs1)NC(=O)c1ccccc1	-2	-4	nt	4.0	nt	nt	12
Cc1ccc(C(=O)ONc2ccc(N=O)cc2)cc1	nt	nt	2143	1.1	-9	-2	100*
COc1ccc(O)c(/C=N/N=C/c2cccc([N+](=O)[O-])c2)c1	nt	nt	3453	nt	-2	-8	nt
COC(=O)c1ccc(C(=O)OC)c(NC(=S)N2CCN(c3ccccn3)CC2)c1	6	14	4259	-13	-2	-27	2
O=C(NN=Cc1cccs1)c1ccc2c(c1)OCO2	9	1	nt	4.4	nt	nt	1
CCOc1ccc(C(c2nnnn2Cc2ccccc2)N2CCN(C(=O)c3ccco3)CC2)cc1 (centres undefined)	nt	nt	2956	1.4	0	-48	8
CC(C)C[C@H](NC(=O)c1[nH]cnc1C(=O)Nc1ccccc1)C(=O)OC(C)(C)C	nt	nt	2799	nt	7	8	nt
CC1COC2C(O1)N(S(C)(=O)=O)CCN2S(C)(=O)=O (centres undefined)	-5	0	25718*	-0.2	2	2	-1

Copied from the entries so far, 3 compounds:
SMILES	Mtb hypoxia inh	Mtb hypoxia inh growth	Bead autofluor	RN4220 kill	BJeLR lethal	PrP 5UTR inh	Sa ugtP lethal
CCOc1ccc(C(c2nnnn2Cc2ccccc2)N2CCN(C(=O)c3ccco3)CC2)cc1 (centres undefined)	nt	nt	2956	1.4	0	-48	8
CC(C)C[C@H](NC(=O)c1[nH]cnc1C(=O)Nc1ccccc1)C(=O)OC(C)(C)C	nt	nt	2799	nt	7	8	nt
CC1COC2C(O1)N(S(C)(=O)=O)CCN2S(C)(=O)=O (centres undefined)	-5	0	25718*	-0.2	2	2	-1

(further entries)
SMILES	Mtb hypoxia inh	Mtb hypoxia inh growth	Bead autofluor	RN4220 kill	BJeLR lethal	PrP 5UTR inh	Sa ugtP lethal
O=C(c1ccccc1)c1ccc(N2CCN(C(=O)c3cccc(F)c3F)CC2)c(F)c1	5	19	6321	5.4	4	3	-4
Cn1c2ccccc2c2ncn(Cc3ccco3)c(=O)c21	5	13	19514*	10	0	-12	-19
COc1ccccc1N1CCN(C2CC(=O)N(c3cccc(Br)c3)C2=O)CC1 (centres undefined)	-5	-6	4077	-2.3	2	-8	2
O=C(NN=Cc1cc(Cl)ccc1O)c1ccc(Br)cc1	13	-1	nt	74	nt	nt	90*
Cc1cc(C)c(C)c(OCCNCc2ccccc2)c1	15	-2	4352	2.6	-1	-37	-4
COc1ccc(CNc2nc3ccccc3n2Cc2ccc(C)cc2)cc1OC	0	-3	11286	5.3	6	-19	-2
CCOc1ccc(C2(C)CC(=O)N(C)C2=O)cc1 (centres undefined)	9	10	3341	3.5	-6	-18	6
COc1ccc2[nH]cc(CCNC(=O)C3CCCO3)c2c1 (centres undefined)	-12	-12	3123	3.4	-3	-6	0
O=C(NC(=S)Nc1ccc2[nH]c(=O)[nH]c2c1)c1ccccc1[N+](=O)[O-]	9	-11	5304	2.4	5	-13	-2
COCCCNc1nc2c(-c3cccc(C(F)(F)F)c3)nnn2c2ccccc12	7	5	5735	-6.9	-7	-2	1
Oc1ccc(/C=N/N2CCN(c3ccccn3)CC2)cc1	nt	nt	6289	nt	-6	-15	nt
O=C(Nc1ccc(S(=O)(=O)NC2CCCCC2)cc1)c1ccc(Br)o1	3	5	5498	2.3	-9	-22	-8
O=C(C1CC1)N1CCc2cc(S(=O)(=O)NCCCN3CCCCC3)ccc21	5	2	5853	1.6	12	-18	3
CN(C)C(=O)CSc1nnc2sc3ccccc3n12	nt	nt	4526	3.4	10	-9	2
Cc1nn(-c2cc(N3CCOCC3)ccc2N)c(=O)c2ccccc12	6	8	6887	3.5	-1	-10	2
COC(=O)c1ccc(Cn2cnc3c(cnn3-c3ccc(Cl)cc3)c2=O)o1	8	5	2177	-3.3	-3	-24	14
COc1ccccc1C(O)(C(=O)NN(C)c1ccccc1)c1ccccc1OC	10	4	2149	4.7	1	-3	9
Oc1ccc(C[C@H]2CNCCN2CCc2cc(C(F)(F)F)cc(C(F)(F)F)c2)cc1	nt	nt	4135	nt	1	-12	nt
COc1ccc(N2CC(C(=O)Nc3cc(C)on3)CC2=O)cc1 (centres undefined)	9	3	10384	1.6	8	-17	7
CCCN(CCC)c1ccc(C=NNC(=O)CN2CCOCC2)cc1	3	-2	nt	6.3	nt	nt	-2
CCN(Cc1nc2cc(Cl)ccc2c(=O)[nH]1)C(=O)c1nn(C)c(=O)c2ccccc12	-9	2	3588	0.2	nt	6	2
CCN(CC)CC#CC(O)(c1ccccc1)c1ccccc1	0	4	4471	4.5	5	-16	0
CC(C)N(Cc1ccccc1)C(=O)COC(=O)c1ccc(O)cc1	-13	1	8638	3.0	nt	-8	2
COc1ccc(S(=O)(=O)c2cnc3ccc(OC)cc3c2N2CCC3(CC2)OCCO3)cc1	-6	11	2128	-3.2	-18	0	-7
Cc1ccccc1NC(=O)C(C)OC(=O)CNS(=O)(=O)c1ccc(C#N)cc1 (centres undefined)	5	0	?	4.6	-6	-10	7
CCS(=O)(=O)/N=C(\N)c1ccccc1	nt	nt	8271	nt	6	4	nt
Cc1ccc(NC(=O)CN(C)C(=O)c2ccc(Cl)c([N+](=O)[O-])c2)cc1	12	5	2883	4.7	1	-4	14
C=CCn1c(SCC(=O)Nc2ccc(C(=O)OCC)cc2)nnc1-c1cccs1	nt	nt	3726	1.2	-7	-4	-2
CCN1CCN(C(=O)CS(=O)(=O)Cc2nc(-c3cccc(OC)c3)oc2C)CC1	-8	-12	4971	-1.4	0	-11	0
C/C(N)=C(/C#N)C(=O)CSc1nnc(Nc2cccc(C)c2C)s1	3&6	-2&6	3062&11188	5.6&4.5	6	-35&-42	2&-6
O=C(N[C@@H](Cc1ccc(Br)cc1)C(=O)O)OCC1c2ccccc2-c2ccccc21	nt	nt	4151	nt	10	-12	nt
CCCCN(CCCC)CCNC(=O)CN1C(=O)CSc2ccc(S(=O)(=O)N3CCCCC3)cc21	3	2	5389	2.2	11	-9	1
O=C(C1=C[C@@H]2[C@H]3C(=O)N(c4ccc(Cl)cc4)C(=O)[C@H]3[C@@H](C(=O)c3ccc(Cl)cc3)N2C=C1)c1ccccc1	1	2	2245	-2.0	-10	-7	29
CN1CCN(c2ccc(C(=O)c3ccc(F)cc3)cc2)CC1	11	15	2675	3.3	-1	-95	-4
O=S(=O)(NCCOC12CC3CC(CC(C3)C1)C2)c1cccc2nsnc12	nt	nt	3690	4.9	-2	-11	1
Cc1cc(C)c(C)c(S(=O)(=O)N2CCN(C(=O)c3ccc4c(=O)n5c(nc4c3)CCC5)CC2)c1C	7	-2	4826	1.6	-5	-1	0
CC(=O)N1CCN(Cc2nc(-c3cccc(Cl)c3)no2)CC1	6	-6	4266	0.8	4	-26	0
O=C(c1ccc(S(=O)(=O)NCc2ccco2)cc1)N1CCN(Cc2ccccc2)CC1	7	2	3262	-2.8	-10	9	2
COCCN1C(=O)c2ccc(C(=O)Nc3nccs3)cc2C1=O	0	-3	9769	5.0	-1	-18	-1
Cn1cc(C(=O)C(=O)N2CCCc3ccccc32)c2ccccc21	8	4	4074	3.3	15	-47	2
CC(C)OCCCN(C)C1CCN(S(=O)(=O)c2ccc(-c3ccc(=O)[nH]n3)s2)CC1	16	14	5483	0.1	-5	-5	5
N#Cc1ccccc1OCCn1cncn1	2	3	4016	6.0	-3	-15	10
COc1ccc(C2/C(=C(\O)c3ccc(OC)c(Cl)c3)C(=O)C(=O)N2CCN(C)C)cc1 (centres undefined)	16	8	9660	7.2	-8	-21	-5
COC(=O)c1ccc(C(=O)N2CCCC(Nc3ccc(C(C)C)cc3)C2)cc1 (centres undefined)	5	-1	4962	3.8	5	-14	7
C=CCn1c(SCC(C)=O)nc2scc(-c3ccc(C)o3)c2c1=O	7	-2	4097	-1.7	0	-32	7
O=S(=O)(c1ccc(Cl)nc1)N1CCC(Cc2ccccc2)CC1	2	6	?	0.1	nt	7	2
CCCCN(C(=O)c1ccc(Cl)c([N+](=O)[O-])c1)c1c(N)n(CCC)c(=O)[nH]c1=O	-2	3	4592	3.6	-1	-32	-1
OC(c1ccccn1)c1c[nH]c2ccccc12 (centres undefined)	nt	nt	2517	6.2	-4	-11	-3
Cc1ccc2oc(C(=O)NCCC3CCCCO3)c(C)c2c1 (centres undefined)	-2	1	5711	-3.6	-1	-55	-14
Cn1c(SCc2n[nH]c(=S)n2-c2ccccc2)nnc1-c1ccccc1	1	7	7405	1.4	-1	-6	0
CC(C)N1CCC(N2CCN(Cc3ccc(-c4ccc(Cl)cc4)o3)CC2CCO)CC1 (centres undefined)	8	2	4667	-3.9	2	-3	2
CC(Oc1ccc2c(c1)oc(=O)c1ccccc12)C(=O)NCC1CCC(C(=O)O)CC1 (centres undefined)	nt	nt	4161	0.7	-8	-25	-6
COc1ccc(N2CC(NC(=O)N(C)CCC#N)CC2=O)cc1 (centres undefined)	2	4	5626	3.4	5	-8	8
CCn1c(COc2ccc(=O)n(-c3ccccc3)n2)nnc1SCc1ccc(C)cc1	-7	5	9998	5.9	-2	-28	-6
CCOc1nc(C)cc(C)c1S(=O)(=O)c1ccc(Cl)cc1	15	5	2122	4.4	-1	-12	18
Nc1oc2ccccc2c(=O)c1C=O	2	3	7995	0.2	11	-24	3
CC(C)C[C@H](NC(=O)OC(C)(C)C)c1nnc(SCc2cccc(F)c2)o1	-1	-2	4267	-2.3	1	-1	-3
COc1ccc(OCCNC(=O)/C=C/c2ccc([N+](=O)[O-])cc2)cc1	1	7	10366	-0.7	0	-19	21
CC1Cc2ccccc2N1S(=O)(=O)c1cccc(C(=O)NNC(=O)c2ccccc2F)c1 (centres undefined)	18	34	3431	8.6	nt	-23	7
COC(=O)c1sc2nc(-c3ccccc3)c3c(c2c1N)CCCC3	-4	-13	4291	-3.7	-13	-2	-5

(listing goes on)
SMILES	Mtb hypoxia inh	Mtb hypoxia inh growth	Bead autofluor	RN4220 kill	BJeLR lethal	PrP 5UTR inh	Sa ugtP lethal
O=C1[C@H]2[C@@H](c3ccc(F)cc3)N3C(=O)N(c4cccc(Br)c4)C(=O)[C@@]3(Cc3ccccc3)[C@H]2C(=O)N1C1CCCCC1	nt	nt	3650	nt	2	-80	nt
CCCn1c(SCC(=O)Nc2c(C)cccc2C)nnc1C(C)C	-6	0	4188	1.8	3	-6	5
C/C(Cn1nc([N+](=O)[O-])cc1C)=N\NC(=O)COc1ccc(Cl)cc1Cl	nt	nt	2212	nt	3	-16	nt
CC(=O)c1c(C)[nH]c(C(=O)N2CCc3ccccc32)c1C	nt	nt	4582	3.0	0	-11	-5
CCOC(=O)Cn1c(=O)oc2cc(S(=O)(=O)N3CCCc4ccccc43)ccc21	7	6	5606	7.1	-11	-12	11
COc1cc(OC)cc(C(=O)NNC(=O)CCc2ccccc2)c1	15	5	4491	5.5	4	-10	10
COC(=O)c1ccc(Oc2nc(NC(C)(C)C)nc(N3CCOCC3)n2)cc1	6	16	nt	0.3	0	nt	2
COc1ccccc1C1C(=C(O)c2ccccc2)C(=O)C(=O)N1CCO (centres undefined)	14	11	nt	1.1	nt	nt	-1
O=[N+]([O-])c1ccc(C(O)CN2CCN(Cc3ccccc3)CC2)cc1 (centres undefined)	6	9	3764	0.4	3	-21	6
COC(=O)c1cccnc1NC(=S)NC(C)C	9	2	4707	5.4	-5	-19	5
NC(=O)c1cc2ccccc2oc1=NNC(=O)c1ccco1	6	7	nt	4.3	nt	nt	-4
CC1(C)c2[nH]c3ccccc3c2C[C@H]2C(=O)N(Cc3cccc(F)c3)C(=O)N21	nt	nt	4438	nt	-1	-11	nt
CCCCCNC(=O)Cc1cc(=O)[nH]c(=O)[nH]1	-1	-4	4300	-9.2	-9	-2	-7
